# Vif A3G: inhibitors of Vif binding to APOBEC3G peptide, primary screen, biochemical, TR-FRET, GST-Vif 1-94, biotin-A3G peptide, dose response retest (AID 1117319) | TR-FRET GST-Vif / biotin-A3G peptide binding; higher % means a stronger effect; test concentration not given here; strong numbers were not always called active | 260,000 compounds, 0.57% hits | inhibition, %; hits with a dose series show IC50 in µM;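 active means above the screen mean plus three standard deviations and confirmed in dose response; inconclusive means results disagree or hit not tested in dose response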;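 further: Vif residues 1-94 fused to GST binding biotinylated APOBEC3G peptide 110-148; 0% = full assay without inhibitor and 100% = GST in place of GST-Vif; retest series ran down from 100 µM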
# A1 inh: inhibitors of the anti-apoptotic protein A1, read as caspase activation | MEF A1-2A-BIM cells, Caspase-Glo 3/7 luminescence, 3 h; percent of clofoctol response, vehicle zero | caspase activation, % (no concentration beside the values) | 330,000 compounds, 0.066% hits;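 active means over half of replicate activation scores above 10%, or exactly half above 10 with the replicate mean above 10; inconclusive means replicate mean below 10 yet half the replicates above 10; inactive means over half of replicates below 10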;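 further: wells of about 30 µL received 50 nL stock; many hits fall short of the cut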
# MLL AF4-AF9 inh: blocks AF4 peptide binding to human AF9 | P42568 | AID 651704 | inhibition, % at 10 µM | 350,000 compounds, 0.47% hits | AlphaScreen, biotin-AF4 peptide binding to FLAG-AF9;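 active means every replicate reaching a set inhibition limit, whatever the replicate mean, cut at about 25% in these data; inconclusive means mean inhibition reaches that limit but some replicates miss it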;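 further: 0% = plate neutral control median and 100% = total signal loss; the record names both 10 and 1 µM as test concentration; the first replicate is given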
# Target sequence (P42568 whole entry, looked up): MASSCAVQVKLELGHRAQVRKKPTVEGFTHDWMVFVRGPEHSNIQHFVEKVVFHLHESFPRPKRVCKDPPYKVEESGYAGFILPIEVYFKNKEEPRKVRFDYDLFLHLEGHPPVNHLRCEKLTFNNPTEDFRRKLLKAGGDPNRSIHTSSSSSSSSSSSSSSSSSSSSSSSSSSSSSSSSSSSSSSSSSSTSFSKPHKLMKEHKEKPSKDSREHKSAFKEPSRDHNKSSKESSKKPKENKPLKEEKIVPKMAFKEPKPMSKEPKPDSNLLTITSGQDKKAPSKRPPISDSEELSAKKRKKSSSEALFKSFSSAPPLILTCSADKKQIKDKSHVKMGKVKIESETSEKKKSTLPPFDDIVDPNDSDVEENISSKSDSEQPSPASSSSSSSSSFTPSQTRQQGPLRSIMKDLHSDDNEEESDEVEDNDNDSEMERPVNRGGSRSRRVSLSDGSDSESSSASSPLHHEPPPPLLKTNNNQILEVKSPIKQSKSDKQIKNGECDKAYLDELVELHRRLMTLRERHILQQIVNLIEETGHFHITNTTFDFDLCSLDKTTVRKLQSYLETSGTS
# RanGTP-Imp inh: disruptors of Ran-importin-beta complex formation – biochemical, FRET, CFP-Ran, YFP-importin-beta, homogeneous, primary screen | cell-free CFP-Ran/YFP-importin-beta FRET ratio | inhibition, % (no concentration beside the values) | 300,000 compounds, 1.1% hits;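 active means most replicates above 15%; inconclusive means exactly half above 15%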;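 further: 0% = DMSO wells and 100% = Ran loaded with GDP instead of GTP; wells of about 40 µL received 100 nL stock; the first replicate is given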
# T cruzi repl: blocks replication of Trypanosoma cruzi | T. cruzi beta-gal in NIH3T3, luminescence, 90 h | inhibition, % (concentration not given with the values) | 300,000 compounds, 1.4% hits | AID 1885;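 active means mean inhibition across valid replicates above about 55%, limit read from the data; inconclusive means mean below that limit but half or more replicates reach it; inactive means mean below it, under half of replicates reach it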;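 further: signal also drops with host cell toxicity which is not excluded here; 0% = plate median of DMSO wells and 100% = zero luminescence signal; higher percent means less beta-gal luminescence so fewer parasites; stock transfer was 50 nL into about 50 µL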
# Beta cell apopt: beta cell apoptosis inhibition | INS-1E cytokine-induced death, ATP luminescence, 48 h; percent of positive-control rescue, neutral wells zero | protection from apoptosis, % (concentration not given with the values) | 300,000 compounds, 0.8% hits;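 active means all replicates at 75% or more, or half of them and the mean; inconclusive means half reach 75% but not the mean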;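 further: 0% = cytokine-treated negative control wells and 100% = positive control rescue; higher means more ATP so stronger rescue from cytokine killing; wells of about 40 µL received 100 nL stock; the first replicate is given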
# Calb FLC: affects C. albicans growth with fluconazole; C. albicans CaCi-2 (fluconazole-resistant clinical isolate) + fluconazole, Alamar Blue growth, 48 h; growth inhibition, % (no concentration beside the values); 300,000 compounds, 0.57% hits;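 active means most replicates above 75%; inconclusive means exactly half above 75%; inactive means most below 75%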;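 further: all wells also contain fluconazole at 8 µg/ml as a sub-toxic cotreatment; 0% = median of DMSO wells and 100% = median of geldanamycin control wells; wells of about 8 µL received 7.5 nL stock; the first replicate is given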
# Ecoli rRNA inh: inhibitors of bacterial rRNA selective over humanized ribosomes; 350,000 compounds, 1.6% hits; E. coli WT GFP vs humanized-ribosome RFP mutants, fluorescence, 24 h; stronger effect = lower value; DMSO median 0, no signal -100; GFP signal change (wild-type ribosome), % (concentration not given with the values);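 active means significant combined selectivity score with lowered wild-type GFP, culture density cut under 30%, mutant RFP and density less affected; inactive means any of these conditions unmet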; further: one replicate is shown; some compounds called inactive have numbers as strong as hits
# Ecoli rRNA inh OD600: further read-out of Ecoli rRNA inh, marked with its call; OD600 change, %; measured here: OD600 growth;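 optical density of the mix in the first replicate; 0 = DMSO median and -100 = no signal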
# Ecoli rRNA inh RFP: recorded beside Ecoli rRNA inh, whose call it bears; RFP signal change, %; measured here: RFP humanized mutant strains;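 first replicate; 0 = DMSO median and -100 = no signal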
# Active calls of the source: *; ? = inconclusive; . = no result given.
SMILES,Vif A3G,A1 inh,MLL AF4-AF9 inh,RanGTP-Imp inh,T cruzi repl,Beta cell apopt,Calb FLC,Ecoli rRNA inh,Ecoli rRNA inh OD600,Ecoli rRNA inh RFP
O=C(C1=C[C@@H](c2ccc3c(c2)OCO3)C[C@@H](OCc2ccc(CO)cc2)O1)N1CCOCC1,-2%,0.5,-2.6,1.1,-3,-8,5,0,-4,0.0
CC1CCN(C(=O)CN2C(=O)C(=O)c3ccccc32)CC1,4%,0.6,.,-1.8,-38,0,-15,.,.,.
CC(C)C(c1nnnn1Cc1cccs1)N1CCN(C2CCCC2)CC1 (stereo unspecified),13%,1.8,.,0.3,-7,-1,.,.,.,.
COc1ccccc1C(=O)N1CCN(c2nc3cc(C)c(C)cc3cc2C#N)CC1,11%,0.5,.,0.7,10,1,-7,.,.,.
Cc1cc(C)cc(N2C(=O)CC(c3ccccc3)CC2=O)c1,.,0.6,-4.4,.,.,-4,.,9,12,1.2
O=C(CSc1nc(=O)n2ccccc2n1)NCc1ccccc1Cl,-7%,0.0,-0.2,-3.3,-12,-4,3,0,4,1.7
CCCC1(c2ccccc2)NC(=O)N(CC(=O)N2CC(=O)Nc3ccccc32)C1=O (stereo unspecified),-4%,-0.1,-3.0,.,.,-1,.,5,5,-0.1
Cc1ccc(C(=O)Nc2ncc(Cc3ccc(SC(F)F)cc3)s2)cc1,.,1.2,5.4,-3.9,13,14,1,6,10,-3.7
CCn1c(SCC(=O)NCc2ccc(F)cc2)nc2c(c1=O)SC(C)C2 (stereo unspecified),2%,0.0,3.0,-1.1,4,-2,-6,-7,-6,1.3
Cc1ccn2c(=O)c(NC(=O)COc3ccccc3)c(C)nc2c1,2%,0.7,-2.7,0.4,-1,-7,-3,-3,4,-2.9
Cc1ccc(NC(=O)/C=C\C(=O)NCC(=O)O)cc1C,-3%,1.1,.,-1.0,-5,1,-6,.,.,.
Cc1ccc(CCNC(=O)CN(C)S(=O)(=O)c2ccc3c(c2)c(=O)n(C)c(=O)n3C)cc1,1%,0.0,-3.0,4.7,-16,3,-8,8,13,2.1

# Among those listed so far, these contain an aryl thioether with sulfur outside any ring.
SMILES,Vif A3G,A1 inh,MLL AF4-AF9 inh,RanGTP-Imp inh,T cruzi repl,Beta cell apopt,Calb FLC,Ecoli rRNA inh,Ecoli rRNA inh OD600,Ecoli rRNA inh RFP
O=C(CSc1nc(=O)n2ccccc2n1)NCc1ccccc1Cl,-7%,0.0,-0.2,-3.3,-12,-4,3,0,4,1.7
Cc1ccc(C(=O)Nc2ncc(Cc3ccc(SC(F)F)cc3)s2)cc1,.,1.2,5.4,-3.9,13,14,1,6,10,-3.7
CCn1c(SCC(=O)NCc2ccc(F)cc2)nc2c(c1=O)SC(C)C2 (stereo unspecified),2%,0.0,3.0,-1.1,4,-2,-6,-7,-6,1.3

# The listing continues:
SMILES,Vif A3G,A1 inh,MLL AF4-AF9 inh,RanGTP-Imp inh,T cruzi repl,Beta cell apopt,Calb FLC,Ecoli rRNA inh,Ecoli rRNA inh OD600,Ecoli rRNA inh RFP
CCc1cccc(C)c1NC(=O)CN(C)Cc1cccc(F)c1,.,0.6,-2.2,?,-11,1,1,-24,-39,4.7
CCN1C(=O)CC(C(=O)O)SC1=Nc1ccc(OC)cc1 (stereo unspecified),0%,1.0,.,-0.6,-6,-4,16,.,.,.
CCNc1nc(NCC)nc(N(C#N)C(C)C)n1,-5%,-0.3,4.1,-3.2,4,2,-3,5,6,-0.4
CCOC(=O)/C(=N\Nc1cc(Cl)ccc1Cl)N1CCOCC1,23%,-2.3,1.3,2.7,2,0,-12,1,1,-0.6
Cc1ccc(C(=O)Nc2ccc(F)cc2)cc1NC1=NC2CS(=O)(=O)CC2S1 (stereo unspecified),.,0.8,-1.8,0.4,-8,-3,2,2,10,5.8
CNc1ccccc1C(C)(C)c1cc(-c2ccco2)n[nH]1,?,0.2,16,1.9,15,-2,-3,4,5,15
O=C(CN1C(=O)CSc2ncccc21)N1CCOCC1,-2%,-0.3,-6.9,-2.5,-1,.,2,5,1,-1.9
COc1cc(CNn2c(C)n[nH]c2=S)cc(Cl)c1OCC(=O)NC(C)(C)C,15%,-0.4,-8.7,1.7,1,7,4,-22,-23,-1.8
CCOC(=O)c1c(C)n(C(=O)c2ccco2)c(=O)n1C(=O)c1ccco1,8%,-0.5,.,-0.6,-16,-12,25,.,.,.
COc1cc(/C=N/n2c(SC)nnc(C(C)(C)C)c2=O)ccc1O,7%,-0.1,.,-9.0,-1,-9,-6,.,.,.
Cc1nn(CC(=O)N(C)C2CCS(=O)(=O)C2)c(C)c1[N+](=O)[O-] (stereo unspecified),-4%,-0.2,0.6,0.9,-7,5,0,12,8,0.6
CCCNS(=O)(=O)c1ccc(OCC(=O)OC)cc1,20%,-0.3,.,1.5,-15,-5,-4,.,.,.
O=C(NC(Nc1cc(C(F)(F)F)ccc1Cl)C(=O)c1ccccc1)c1ccccc1 (stereo unspecified),-8%,-0.2,.,-3.1,58*,13,-7,.,.,.
CCC(=O)NC(Nc1cccc(C)n1)(C(F)(F)F)C(F)(F)F,-5%,1.2,.,3.3,-13,.,-6,.,.,.
COc1ccc(C(=S)N2CCOCC2)cc1OC(=O)c1cccc([N+](=O)[O-])c1,19%,0.7,8.0,2.8,2,-4,-10,-12,-9,-3.9
CN(Cc1ccccc1)C(=O)C1CCN(S(=O)(=O)c2cccc3nsnc23)CC1,.,0.1,0.2,?,7,-7,0,2,6,-2.1
CC(NC(=O)C1CCCCC1)C(=O)NC1=NCCS1 (stereo unspecified),-3%,0.0,.,-1.4,-10,-9,1,.,.,.
N#C/C(=C(/O)COc1cccc2ccccc12)c1nc2ccccc2[nH]1,?,0.0,.,1.8,-11,9,-1,.,.,.
Cc1ccc(CNC(=O)CCc2c(C)nc3ncnn3c2C)cc1,32%,0.7,.,0.6,4,-6,-8,.,.,.
CCOC(=O)c1cnc(-n2nc(C)cc2C)nc1NC(C)c1ccccc1 (stereo unspecified),-2%,.,.,-0.5,60*,88*,-10,.,.,.
CCN(CC)S(=O)(=O)c1cccc(C(=O)N/N=C/c2ccc(N3CCOCC3)cc2)c1,3%,0.3,-0.6,3.2,15,-5,-3,12,-2,-12
COc1ccccc1N1CCN(Cc2cc(=O)c(OCC(=O)NC3CCCC3)co2)CC1,8%,0.2,-2.0,-6.1,3,.,7,4,1,-0.2
Cc1cccc(OCC(=O)Nc2cc(S(=O)(=O)N3CCOCC3)ccc2N2CCCC2)c1C,14%,2.1,1.9,-6.4,27,0,-2,-34,-40,-4.3
CC(C)(C)OC(=O)C(C(=O)OC(C)(C)C)c1ccc(Cl)nn1,1%,-0.3,-2.7,-1.4,-27,-5,?,7,10,0.7
Cc1nc(C(=O)N/N=C/c2[nH]ncc2Br)cs1,8%,-3.2,.,-2.9,-6,-4,-5,7,1,-0.9
O=C(CCS(=O)(=O)c1ccccc1)Nc1ccc2c(c1)OCO2,?,0.8,-1.1,4.1,-5,-8,-3,.,.,.
CC(C)C(C(=O)NC(C)(C)C)N1C(=O)c2ccccc2C1=O (stereo unspecified),1%,0.1,.,-2.0,5,.,2,.,.,.
COc1ccccc1C(=O)OCc1c(F)cccc1Cl,2%,-0.6,.,1.0,-6,-7,2,.,.,.
O=C(CCNc1n[nH]c(=O)[nH]c1=O)N1CCCCC1,-3%,0.6,.,2.3,-4,-4,-1,.,.,.
Cc1ccc(Cn2nc(C)c(NC(=O)c3noc4c3CCCCC4)c2C)cc1,-1%,-0.5,.,0.7,2,11,32,.,.,.
O=C(O)C1C2CCC(O2)C1C(=O)Nc1ccc(OC(F)F)cc1 (stereo unspecified),.,2.2,1.6,2.1,-4,1,-6,-4,9,-3.4
C=C(c1ccccc1)c1ccc(N(C)C)cc1,-3%,2.1,3.7,-2.7,1,-3,14,11,5,-0.4
O=C(Nc1ccc2c(c1)CCC2)C1CCCN(c2ncccn2)C1 (stereo unspecified),10%,-1.7,.,?,9,0,-50,.,.,.
CCCc1nc2oc3c(=O)[nH]cnc3c2c2c1CCCC2,9%,-0.3,-0.5,4.1,1,-2,18,3,9,7.2
Cc1cc(-n2cnnn2)cc(C)c1S(=O)(=O)N(C)c1ccccc1,.,0.3,1.5,-2.2,-4,-4,9,-14,-34,-2.0
Cc1ccc(CC2C(=O)N(CC(=O)O)C(=O)C2C)cc1 (stereo unspecified),7%,0.6,.,-1.3,7,0,6,.,.,.
COC(=O)Cn1cnc2scc(-c3ccc(C)cc3)c2c1=O,5%,-1.5,-2.6,-0.7,0,-4,10,1,-2,0.2
CC(NC(=O)c1cc(-c2cccs2)on1)c1ccccc1 (stereo unspecified),19%,-0.2,.,1.0,-2,-9,-22,.,.,.
CC[C@@]12C(=O)N(c3cccc(Br)c3)C(=O)N1[C@H](c1ccc(Br)cc1)[C@@H]1C(=O)N(C(C)(C)C)C(=O)[C@@H]12,.,?,1.5,4.2,29,-5,9,12,4,-1.3
CCc1ccccc1NC(=S)Nc1cc(OC)c(NC(=O)C(C)C)cc1OC,.,0.5,5.8,2.4,9,.,-8,5,3,45
CC(OC(=O)c1ccccc1O)C(=O)Nc1ccc(Cl)cn1 (stereo unspecified),0%,0.4,-15,1.2,-4,.,?,6,10,-1.4
CCOc1ccc(NC(=O)c2sc3nc(N4CCOCC4)c4c(c3c2N)CC(C)(C)OC4)cc1,.,0.8,1.1,3.8,1,3,2,17,9,0.4
CCOC(=O)C1CCN(C(=O)COc2cc(C)c(Br)cc2C)CC1,-9%,0.5,.,1.0,-4,-4,-11,.,.,.
CC(=O)c1ccc(S(=O)(=O)N2CCN(C(=O)CSc3ccc(C)c(C)c3)CC2)cc1,.,-1.0,-1.5,4.5,-4,-5,9,-10,-20,3.0
COc1cc2c(cc1OC)C(C(=O)N1CCCCC1)C(c1ccccc1F)N(C)C2=O (stereo unspecified),10%,1.1,.,-1.9,-3,2,-1,.,.,.
CC1CCCC(NC(=O)c2ccc3snnc3c2)C1C (stereo unspecified),-2%,0.4,3.2,2.5,-12,7,4,3,9,0.0
CCN(CC)c1ccc(CN(C(=O)c2ccco2)C2CCS(=O)(=O)C2)cc1 (stereo unspecified),3%,-1.3,5.0,2.8,10,5,-6,4,2,-1.0
CC(C)Nc1nc(NC(C)C)nc(Oc2ccc(OCc3ccccc3)nn2)n1,1%,0.0,.,2.4,.,3,-1,.,.,.

# Only part of the results is shown; the hit share may differ from the screen's.
